# Source: PubChem
# GIV Gai3 FP – inhibitors of GIV peptide binding to Galpha-i3, primary screen, biochemical, fluorescence polarization, FITC-GIV GBA peptide, rat Galphai3. Guanine nucleotide-binding protein G(i) subunit alpha-3 (Rattus norvegicus), P08753. 90 min; stronger effect = lower value; scaled: aluminum fluoride 0%, vehicle 100%. percent of control (FP), % (no concentration beside the values). actives 0.42% (n = 210,000). AID 1224905, 2016;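 active = replicate mean at 85% of control or lower, very high polarization wells dropped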;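 note: wells of about 15 µL received 100 nL stock; the first replicate is given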
# Target sequence (P08753 whole entry, looked up): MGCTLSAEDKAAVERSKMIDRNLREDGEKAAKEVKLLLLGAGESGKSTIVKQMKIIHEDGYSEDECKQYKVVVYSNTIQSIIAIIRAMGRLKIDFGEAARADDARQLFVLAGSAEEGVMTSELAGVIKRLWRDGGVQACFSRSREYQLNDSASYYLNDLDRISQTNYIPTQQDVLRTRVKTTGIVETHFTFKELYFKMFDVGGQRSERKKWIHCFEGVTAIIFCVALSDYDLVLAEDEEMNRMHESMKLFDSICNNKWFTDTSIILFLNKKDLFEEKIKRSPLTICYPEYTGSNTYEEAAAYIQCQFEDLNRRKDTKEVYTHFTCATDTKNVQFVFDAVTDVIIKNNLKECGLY
# Active calls of the source: *.
SMILES,GIV Gai3 FP
O=C(O)COc1ccc(N2C(=O)C3C4c5ccccc5C(c5ccccc54)C3C2=O)cc1 (configuration not stated),110.7
CN(C)Cc1c(O)ccc2oc3c(c12)C(=O)CCC3,108.8
NC(=O)c1nc(Nc2ccccc2)sc1NC(=O)CSc1ccccc1,108.5
O=C(NCc1cccs1)c1cn2c(n1)CCCC2,94.8
CCOc1cc(C2CC(=O)Nc3c2cnn3-c2ccc3nnc(C)n3n2)ccc1OCc1ccccc1 (configuration not stated),100.9
CCN1C(=O)c2ccccc2Sc2cc(-c3noc(-c4ccc5c(c4)OCO5)n3)ccc21,96.7
CCOCCOC(=O)C1=C(C)NC2=C(C(=O)CC(c3cccs3)C2)C1c1coc2ccc(C)cc2c1=O (configuration not stated),101.6
CCn1c(C(=O)N2CCN(c3ccc(F)cc3)CC2)cc2cc(S(=O)(=O)N(C)C)ccc21,104.8
CC(C)CN(Cc1ccc(F)cc1)Cc1cc(=O)n2nc(C3CC3)sc2n1,104.7
O=C1/C(=C/c2ccc(-c3ccc(Br)cc3)o2)C=C(c2ccccc2)N1c1cccc(Cl)c1,134.2
CCOC(=O)C1=C(C)NC2=C(C(=O)C(C(=O)OCC)C(c3ccc(OC)cc3)C2)C1c1ccsc1 (configuration not stated),101.1
CC(C)c1cc(C2CCCN2Cc2cn[nH]c2-c2cccc(Br)c2)no1 (configuration not stated),105.8
O=C(NCCc1csc(-c2ccccc2)n1)[C@H]1CCCN1C(=O)Cc1ccc(F)cc1,100.2
CCOC(=O)CSc1nc2c(sc(=S)n2CCc2ccccc2)c(=O)n1Cc1ccco1,125.5
COc1ccc(-c2noc(Cc3nc(-c4ccc(Cl)cc4)cs3)n2)cc1,105.3
Cc1c(Cl)cccc1N=CC12c3ccccc3C(c3ccccc31)C1C(=O)N(c3ccccc3[N+](=O)[O-])C(=O)C12 (configuration not stated),115.4
Cc1ccc(C(=O)N/C(=C\c2ccc(F)cc2)C(=O)NCCCn2ccnc2)cc1,108.7
O=C(CN1CCN(C(=O)CSc2ccc(Cl)cc2)CC1)Nc1nnc(-c2ccccc2)s1,105.4
COc1cccc(C(=O)N2c3ccccc3C(N(C(=O)CN3C(=O)c4ccccc4C3=O)c3ccccc3)CC2C)c1 (configuration not stated),107.5
COc1ccc(C(=O)Nc2cnc3oc(-c4ccc(C(C)C)cc4)nn3c2=O)cc1OC,101.5

# Some values from the results shown:
# Reading for O=C(O)COc1ccc(N2C(=O)C3C4c5ccccc5C(c5ccccc54)C3C2=O)cc1 (configuration not stated) in GIV Gai3 FP: 110.7
# Reading for CCOC(=O)C1=C(C)NC2=C(C(=O)C(C(=O)OCC)C(c3ccc(OC)cc3)C2)C1c1ccsc1 (configuration not stated) in GIV Gai3 FP: 101.1
# Reading for Cc1ccc(C(=O)N/C(=C\c2ccc(F)cc2)C(=O)NCCCn2ccnc2)cc1 in GIV Gai3 FP: 108.7
# Reading for NC(=O)c1nc(Nc2ccccc2)sc1NC(=O)CSc1ccccc1 in GIV Gai3 FP: 108.5

# Other structures follow.
SMILES,GIV Gai3 FP
Cc1noc2nc[nH]c(=O)c12,99.6
O=C(C1CCN(c2ncc(-c3ccccc3)cn2)CC1)N1CCN(Cc2ccccc2)CC1,103.8
O=C(Nc1cccc(Br)c1)C1CCN(c2ncc(-c3ccccc3)cn2)CC1,110.1
CCOC(=O)C1=C(N)Oc2ccc3ccccc3c2C1c1ccc(O)cc1 (configuration not stated),121.8
COc1ccc(S(=O)(=O)N2CCN(c3ncnc4c3nnn4-c3ccccc3)CC2)cc1,99.2
Cc1ccc(-c2nc(C(=O)N3CCCCC3)cs2)n1C,106.1
COC(=O)c1c(-c2cccc(Cl)c2)noc1NCC1CCCO1 (configuration not stated),107.6
CO[C@@H]1C(=O)N(C(C(=O)OCc2ccccc2)C(=O)OCc2ccccc2)[C@@H]1C(C)(C)CSc1ccccc1,105.5
COCCCNC(=O)c1ccc2c(c1)nc1n2CCCC1,100.8
CCOC(=O)C1=C(N)n2c(s/c(=C\c3ccc(F)cc3)c2=O)=C(C(=O)OCC)C1c1ccc(F)cc1 (configuration not stated),107.8
Cc1csc(-c2cc(S(=O)(=O)NC(C)C)cn2CC(=O)N2CCCC2)n1,103.8
CCOC(=O)c1sc(NC(=O)CSc2nnc(CNC(=O)Cc3ccc(OC)cc3)n2C)c(C(=O)OCC)c1C,103.2
Cc1nc(-c2ccc(C)c(S(=O)(=O)N3CCCC(C(=O)NC4CCCCC4)C3)c2)no1 (configuration not stated),101.5
CC1=NN(c2ccc(C(=O)OC(C)C)cc2)C(=O)/C1=C\c1ccc(-c2cc([N+](=O)[O-])ccc2C)o1,97.3
COc1ccc(NC(=O)C2CCN(Cc3cc4ccccc4n3Cc3cccc(F)c3)CC2)cc1,102.2
CCc1cc(-c2csc(S(=O)(=O)Nc3ccc(C)c(C)c3)c2)on1,103.8
Cc1ccc(C)c(N2C(=O)/C(=C/c3ccc(-c4ccc(Br)cc4)o3)C=C2c2ccccc2)c1,156.3
Cc1cccn2c(=O)c(C(=O)NCCN(C)C)cnc12,104.4
CSc1nc(NCCNS(=O)(=O)c2ccc(Cl)cc2)nc(N(C)C)n1,120.1
COc1cc2c(cc1OC)C(CCCCCl)=NC(C)(C)C2,111.4
O=C(NC1CCCCC1)c1ccc2ccnc(N3CCN(c4ccc(F)cc4)CC3)c2c1,105.6
CCOC(CNC(=O)c1sc2nc(C)nc(N3CCCCC3)c2c1C)OCC,100.6
Cc1cc(C)c(S(=O)(=O)NCCc2n[nH]c(Cc3ccccc3)n2)cc1C,104.8
Cn1c(=O)n(CC(=O)N2CCCC2)c(=O)c2cc(S(=O)(=O)N3CCCCC3)ccc21,100.5
O=S(=O)(c1ccc(F)cc1)N1CCN(c2ncnc3c2nnn3-c2ccccc2)CC1,95.3
Cc1ccccc1-n1cc(C(=O)O)c2ccccc2c1=O,108.3
CC(C)(C)c1ccc(Cn2cnc3sc4c(c3c2=O)CCCC4)cc1,99.3
NS(=O)(=O)c1ccc(CCNC(=O)CSc2nc3ccccc3c(=O)n2CCCC(=O)NCC2CCCO2)cc1 (configuration not stated),108.8
COCCN1C(=O)c2ccccc2Sc2cc(NC(=O)c3ccoc3)ccc21,100.9
Cc1sc(-c2cc(C(F)(F)F)on2)cc1S(=O)(=O)N1CCOCC1,108.6
CCOc1ccc(NC(=O)CSc2nnc(C(C)N3C(=O)COc4ccccc43)n2C)cc1 (configuration not stated),98.2
Cc1ccc(-c2noc(C3CC3)n2)cc1S(=O)(=O)NC(C)C(=O)NC1CCCCC1 (configuration not stated),97.5
CC1=NN(c2ccc3c(S(=O)(=O)O)cc(S(=O)(=O)O)cc3c2)C(=O)C1,51.2*
Cc1csc(-c2csc(S(=O)(=O)N3CCC(C)CC3)c2)n1,100.3
COc1ccc(OC)c(Nc2nc3nonc3n3c(C)nnc23)c1,112.7
COCCCNC(=O)c1cc2c(n(-c3ccc(F)cc3)c1=O)CCCC2=O,100.4
CC(C)c1cc(C2CCCN2C(=O)c2cc(C3CC3)on2)on1 (configuration not stated),99.4
COc1ccc(C2/C(=C(/O)c3ccccc3)C(=O)C(=O)N2c2ccc(O)cc2)cc1 (configuration not stated),104.2
COc1ccc(N2C(=O)/C(=C/c3c(OC)cc(OC)cc3OC)C(=O)NC2=S)cc1,112.0
Cc1ccc(NC(=O)C2CCCN(S(=O)(=O)c3cc(-c4noc(C)n4)cs3)C2)nc1 (configuration not stated),107.0
CC(C)NC(=O)N1CCC(N2CCN(Cc3cccc(F)c3)C(=O)C2=O)CC1,99.9
O=C(NC1CC1)C1CCN(c2nc3ccsc3c(=O)n2-c2ccccc2)CC1,99.1
COc1ccc(-n2c(CN3CCN(C(=O)Nc4ccc5c(c4)OCO5)CC3)nc3cccnc32)cc1,103.4
CCOC(=O)CNC(=O)N1CCCC1c1cc(CC)no1 (configuration not stated),101.7
Cc1ccc(CNS(=O)(=O)c2c(C)c(-c3nnc(C4CCC4)o3)n(C)c2C)o1,104.8
CCCCc1nc2c3ccccc3n(CC(=O)N3CCN(c4ccccc4F)CC3)c(=O)n2n1,96.0
CC(C)N1C(=O)C2(c3ccccc31)N1CC3(C)CN2CC(C)(C1)C3=O (configuration not stated),104.3
Cc1cc2c(cc1C)NC1(CCCCCC1)C(=NCc1cccc(F)c1)N2,97.2
COC(=O)Cc1nc(N2CCN(c3ccccc3OC)CC2)c2c(C)c(C)sc2n1,103.4
COc1ccc(C2=N/C(=C\c3ccc(OC(C)=O)c(OC(C)=O)c3)C(=O)O2)cc1OC,132.4
# (more compounds)
SMILES,GIV Gai3 FP
COc1ccc(N(CC(=O)NCCSc2nc3ccccc3s2)S(=O)(=O)c2ccccc2)c(OC)c1,102.5
CCOC(=O)c1c(NC(=O)c2sc3nc(N)c(C#N)cc3c2N)sc2c1CCCC2,110.1
c1ccc(-c2noc(CSc3nccn3-c3ccccc3)n2)cc1,104.9
CCC(=O)N1CCc2cc(N3CC(C(=O)NCC4CCCO4)CC3=O)ccc21 (configuration not stated),107.6
O=[N+]([O-])c1cccc(C2(O)CN(c3ccc(Br)cc3)C3=[N+]2CCCS3)c1 (configuration not stated),99.4
Cc1ccc(NC(=O)c2cc(S(=O)(=O)N3CCN(c4ccccc4)CC3)ccc2F)cc1C,110.1
Oc1cccc(-c2nc3cnc(Br)cn3c2Nc2ccc3c(c2)OCO3)c1,102.6
Cc1[nH]c(C)c(S(=O)(=O)N2CCCCC2)c1-c1nnc(C2CCC2)o1,107.6
CCN(C(=O)c1ccccc1-c1ocnc1C(=O)N1CCN(c2ccccn2)CC1)c1ccccc1,98.6
COc1cccc2c1OC1(CCCCC1)N1N=C(c3cccs3)CC21 (configuration not stated),107.9
O=C(O)c1cc(N2C(=O)C3C4C=CC(CO)(O4)C3C2=O)ccc1Cl (configuration not stated),103.4
O=C(CCc1nc(CS(=O)(=O)c2ccc(F)cc2)no1)Nc1ccc(Br)cc1F,104.9
CCOc1ccccc1CN1CCCC1c1cc(C(C)C)on1 (configuration not stated),102.7
Cc1cccc(C2c3cccn3-c3sc4c(c3CN2C(=O)c2cccnc2)CCCC4)c1 (configuration not stated),102.9
CCOC(=O)c1sc(=S)n(-c2ccccc2OC)c1N,98.2
CCc1nc(-c2csc(S(=O)(=O)N3CCC(C(=O)NCC4CCCO4)CC3)c2)no1 (configuration not stated),103.6
COc1ccc(NC(=O)c2cc3nc(-c4ccc5c(c4)OCO5)cc(C(F)(F)F)n3n2)cc1OC,112.8
CCc1nc(SCC(=O)c2ccc(O)cc2O)n[nH]1,100.3
O=C(c1nnc(-c2cc(S(=O)(=O)N3CCCC3)c[nH]2)o1)N1CCOCC1,111.9
COCCN(CCOC)Cc1c(O)ccc2c3c(c(=O)oc12)CCC3,105.5
CCCCOc1ccc(C2CC(=O)C3=C(C2)c2c(ccc4ccccc24)NC3c2ccc(N(C)C)cc2)cc1 (configuration not stated),105.6
Clc1ccc(-c2[nH]c(-c3cccc(C#Cc4ccccc4)c3)nc2-c2ccccc2)cc1,105.7
Cc1nc(-c2cc(S(=O)(=O)NCc3ccc(F)cc3)c(C)s2)sc1C,99.2
COc1cc(OC)c(-c2nc(-c3ccccc3)c(-c3cc([N+](=O)[O-])ccc3OC)[nH]2)cc1OC,105.0
O=C(c1ccc2c(c1)[nH]c(=S)n1c3ccccc3nc21)N1CCN(c2ccccn2)CC1,102.8
COc1ccc(OC)c(C2C(N3C(=O)c4c(Cl)c(Cl)c(Cl)c(Cl)c4C3=O)C(=O)N2c2ccc(Br)c(C)c2)c1 (configuration not stated),106.0
Fc1ccccc1Nc1nc2nonc2n2nnnc12,107.1
CCn1c(C2CCN(S(=O)(=O)c3ccc4c(c3)CC(=O)N4C)C2)nc2cccnc21 (configuration not stated),101.5
COC(=O)C(NC(=O)c1ccc(OC)cc1)(Nc1sc2c(c1C#N)CCC(C(C)(C)C)C2)C(F)(F)F (configuration not stated),117.5
COc1ccccc1NC(=O)COc1ccccc1,108.8
Cc1cccc(-n2c(CNC(=O)c3ccc(S(=O)(=O)N4CCCC4)cc3)nnc2SCC(=O)Nc2nccs2)c1,121.0
CC1CCCCC12NCCN=C2NC1CCCCCC1 (configuration not stated),105.7
COc1ccc(-c2cc(C(F)(F)F)n3ncc(C(=O)Nc4cc(Cl)ccc4O)c3n2)cc1OC,106.0
CCOc1ccc2c(c1)C(=C1SC(C(=O)OC)=C(C(=O)OC)S1)C(=S)C(C)(C)N2C(=O)CN1C(=O)c2ccccc2C1=O,102.2
c1csc(-c2nc(Cn3ccnc3)no2)c1,98.3
CCOc1ccc(C2=NN3C(C2)c2cc(Cl)ccc2OC3c2ccccc2OCC)cc1 (configuration not stated),110.3
CCCc1nn2c(=O)cc(CN3CCCc4ccccc43)nc2s1,158.9
CCN(CC)c1ccc2cc(-c3nc(-c4ccc(Cl)cc4)cs3)c(=Nc3cccc(OC)c3)oc2c1,133.6
CC(C)n1c(N2CCN(C(=O)C3CCCCC3)CC2)cc(=O)n(C(C)C)c1=O,104.7
O=C(NCc1ccccc1)C1CCN(c2nn3c(=O)c4c(nc3s2)CCCC4)CC1,97.7

# Records listed above shown as hits in GIV Gai3 FP:
SMILES,GIV Gai3 FP
CC1=NN(c2ccc3c(S(=O)(=O)O)cc(S(=O)(=O)O)cc3c2)C(=O)C1,51.2*

# Following part:
SMILES,GIV Gai3 FP
COc1ccc(-n2c(=S)[nH]c3cc(C(=O)NCCSCc4ccccc4)ccc3c2=O)cc1OC,105.1
COc1ccc(O)c(C2=Nc3ccccc3N=C(c3ccc(C)cc3)C2)c1,110.0
CCOC(=O)c1c(-c2ccccc2)oc2ccc(NS(=O)(=O)c3cc(C)ccc3C)cc12,121.6
O=C(CSc1nc2ccccc2c(=O)n1NC(=O)CCc1c[nH]c2ccccc12)NCCc1ccccc1,117.4
CCc1c(C)nc2ncnn2c1NC1CCCC1,106.1
CN(C)CCN(C)CC(=O)N1c2ccccc2Sc2ccc(C(F)(F)F)cc21,104.8

# Grouped by structure, those above with a cyano group (two)
SMILES,GIV Gai3 FP
CCOC(=O)c1c(NC(=O)c2sc3nc(N)c(C#N)cc3c2N)sc2c1CCCC2,110.1
COC(=O)C(NC(=O)c1ccc(OC)cc1)(Nc1sc2c(c1C#N)CCC(C(C)(C)C)C2)C(F)(F)F (configuration not stated),117.5

# The list is partial. The share of hits here may be higher or lower than overall.
